Screening results (PubChem BioAssay)
B2AR ag – activates human beta-2 adrenergic receptor causing internalization; P07550; Am2.2-beta2AR cells, FAP receptor internalization, flow cytometry; reference of the scale not given here; response, % (concentration not given with the values); 340,000 compounds, 0.43% hits; AID 504454;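 active = response above a set limit, near 3 SD of response in nonfluorescent compounds, cut at about 42% in these data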;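 also: stock transfer was 100 nL into about 11 µL; a reference agonist was the positive control; negative values mostly stem from fluorescent compounds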
Target sequence (P07550 whole entry, looked up): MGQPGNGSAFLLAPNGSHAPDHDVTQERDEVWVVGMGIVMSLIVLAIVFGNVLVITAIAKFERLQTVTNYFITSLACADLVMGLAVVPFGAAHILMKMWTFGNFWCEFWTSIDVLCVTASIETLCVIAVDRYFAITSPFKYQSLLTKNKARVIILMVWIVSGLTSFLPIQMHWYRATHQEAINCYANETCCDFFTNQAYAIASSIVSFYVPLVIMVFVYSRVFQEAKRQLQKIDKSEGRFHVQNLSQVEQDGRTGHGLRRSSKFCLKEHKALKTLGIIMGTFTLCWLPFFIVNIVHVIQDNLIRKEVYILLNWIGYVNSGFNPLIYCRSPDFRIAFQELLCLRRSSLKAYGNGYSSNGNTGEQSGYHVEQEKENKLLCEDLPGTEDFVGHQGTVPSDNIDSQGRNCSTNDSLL
E coli growth – blocks Escherichia coli growth; OD600, 23 h; hits give low values; 330,000 compounds, 0.21% hits; AID 1053175; OD600 absorbance (test concentration not listed);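 active = OD600 absorbance below the run mean of sample wells minus 3.6 SD, in any replicate, cut at about 0.56 in these data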;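 also: stock transfer was 300 nL into about 60 µL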
HNF4A DNA FP – change in binding of human HNF4 alpha to DNA | P41235 | HNF4a-FITC DNA binding, fluorescence polarization, 1 h | activity change, % at 10 µM | 360,000 compounds, 0.3% hits; in the data active = activity change above about 30%, passing the limit was not always enough;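 also: controls were the assay level and a saturating level of protein; the project sought stronger binding though the title names inhibitors; some compounds called inactive have numbers as strong as hits; positive values seem to mean higher polarization but the record does not say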
Target sequence (P41235 whole entry, looked up): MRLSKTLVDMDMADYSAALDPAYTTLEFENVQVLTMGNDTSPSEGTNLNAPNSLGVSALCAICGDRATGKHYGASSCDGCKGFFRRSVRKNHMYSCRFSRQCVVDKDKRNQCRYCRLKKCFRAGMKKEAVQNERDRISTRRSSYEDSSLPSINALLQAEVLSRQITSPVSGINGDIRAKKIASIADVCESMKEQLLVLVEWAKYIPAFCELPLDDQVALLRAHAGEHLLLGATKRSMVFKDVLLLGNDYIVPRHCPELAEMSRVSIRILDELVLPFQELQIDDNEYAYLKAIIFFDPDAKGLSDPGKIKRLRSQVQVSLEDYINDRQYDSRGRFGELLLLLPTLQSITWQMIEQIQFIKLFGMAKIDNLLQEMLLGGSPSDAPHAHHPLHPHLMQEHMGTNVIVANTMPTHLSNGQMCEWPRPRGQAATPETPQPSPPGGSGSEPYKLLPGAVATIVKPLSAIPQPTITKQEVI
LANA-H2B inh – blocks KSHV LANA binding to histone H2A/H2B; Q9QR71; cell-free LANA-H2A/H2B peptide, fluorescence polarization; inhibition, % (no concentration beside the values); 320,000 compounds, 0.6% hits; in the data active = inhibition mostly above about 10%, no sharp cut-off; inactive = mostly below about 6.7%;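 also: stock transfer was 7.5 nL into about 10 µL; 0% = median of vehicle wells and 100% = median of positive control wells; one replicate is shown; the record names a cut of 25% in any replicate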
ALR inh – inhibitors of human sulfhydryl oxidase ALR; P55789; purified ALR, DTT oxidation, H2O2 HRP-luminol luminescence; inhibition, % (concentration not given with the values); 290,000 compounds, 3.8% hits; AID 485317;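 active = mean and each replicate at 75% or more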;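 also: stock transfer was 7.5 nL into about 7.5 µL; 0% = neutral wells and 100% = wells with inactivated enzyme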
FGF22 binding – shifts melting point of recombinant human FGF22; recombinant FGF22 thermal shift, SYPRO orange fluorescence; percent of sucrose octasulfate shift, DMSO zero; AID 651658; calls only at 9.99 µM; 340,000 compounds, 1.5% hits;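 active = melting point raised past a set limit in the mean and every replicate; three in four hits are not shown here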
Target sequence (Q9HCT0 whole entry, looked up): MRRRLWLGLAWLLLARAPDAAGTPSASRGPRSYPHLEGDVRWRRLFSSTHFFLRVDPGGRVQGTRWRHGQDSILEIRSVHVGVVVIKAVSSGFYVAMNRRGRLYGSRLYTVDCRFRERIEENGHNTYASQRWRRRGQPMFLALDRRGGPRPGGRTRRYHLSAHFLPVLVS
UCH37 DUB inh – inhibitors of human deubiquitinating enzyme UCH37. Q9Y5K5. purified proteasome/UCH37, Ub-AMC cleavage fluorescence. inhibition, % (no concentration beside the values). 330,000 compounds, 0.33% hits. AID 588478;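 active = mean of two replicates above 20%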;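 also: 0% = compound-free wells with enzyme and 100% = wells lacking proteasome; stock transfer was 100 nL into about 20 µL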
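System: Proteasome-associated human UCH37 deubiquitinase; Input: 0.15 nM proteasome in added enzyme buffer; Also added: Ub-AMC substrate from 1 µM stock; Incubation: 30 min compound-proteasome preincubation then 25 min substrate reaction, room temperature; Detection: fluorescence, ex 355 nm, em 460 nm; Read-out: % inhibition of Ub-AMC cleavage fluorescence; Benchmarks: no-proteasome and no-compound wells.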
Starred values were filed as active, the others as inactive.

How did O=C(NC(=S)Nc1ccc2[nH]c(=O)[nH]c2c1)c1cncc(Br)c1 do in these assays?
B2AR ag: 4.5; E coli growth: 0.648; HNF4A DNA FP: 1.9; LANA-H2B inh: 1.0; ALR inh: -4.5; FGF22 binding: inactive; UCH37 DUB inh: 1.2

What do the screens show for `CCc1cc(=O)oc2cc(OC(C)C(=O)O)c(Cl)cc12` (centres undefined)?
B2AR ag: 6.3; E coli growth: 0.698; HNF4A DNA FP: -2.7; LANA-H2B inh: -0.2; ALR inh: -4.9; UCH37 DUB inh: -28.7

What do the screens show for `CCOC(=O)c1ccc(N2C(=O)CC(Sc3nc(C)cc(C)n3)C2=O)cc1` (centres undefined)?
B2AR ag: -1.2; E coli growth: 0.717; HNF4A DNA FP: -0.1; LANA-H2B inh: -1.1; ALR inh: 21.7; FGF22 binding: inactive; UCH37 DUB inh: 3.4

Results for CC1CC(OCC(O)CN2CCOCC2)CC(C)(C)C1 (centres undefined) ?
B2AR ag: -4.5; HNF4A DNA FP: -1.5; FGF22 binding: inactive; UCH37 DUB inh: -2.1

What do the screens show for `Oc1ccc(C[C@@H]2CNCCN2CCc2cc(C(F)(F)F)cc(C(F)(F)F)c2)cc1`?
B2AR ag: 79.7*; HNF4A DNA FP: 2.6; LANA-H2B inh: 3.5; ALR inh: 3.9; FGF22 binding: inactive; UCH37 DUB inh: -1.1

Results for Cc1ccccc1NC(=O)c1nn(C)c(C(=O)Nc2ccccc2C)c1[N+](=O)[O-] ?
B2AR ag: 13.9; E coli growth: 0.653; HNF4A DNA FP: -1.2; LANA-H2B inh: 0.6; ALR inh: -5.9; FGF22 binding: inactive; UCH37 DUB inh: 0.3

What do the screens show for `CC(=O)c1ccc(N2CCN(C(=O)Cc3cccs3)CC2)cc1`?
B2AR ag: 3.8; E coli growth: 0.721; HNF4A DNA FP: 87.6*; LANA-H2B inh: 1.2; ALR inh: -1.3; FGF22 binding: inactive; UCH37 DUB inh: 5.2

What do the screens show for `O=C(Nc1cccc(NC(=O)N2CCN(c3ccccc3)CC2)c1)N1CCN(c2ccccc2)CC1`?
B2AR ag: 3.4; E coli growth: 0.71; HNF4A DNA FP: -0.7; LANA-H2B inh: -3.0; ALR inh: -1.8; UCH37 DUB inh: 0.7

How did CC(C)NC(=O)Nc1ccc2c(c1)C(=O)N([C@H](C)CO)C[C@H](C)[C@@H](CN(C)S(=O)(=O)c1ccc(F)cc1)O2 do in these assays?
B2AR ag: -4.4; HNF4A DNA FP: -2.0; LANA-H2B inh: -3.4; ALR inh: 2.7; FGF22 binding: inactive; UCH37 DUB inh: 0.1

How did O=C(Nc1cccc(Cl)c1N1CCOCC1)c1ccc2c(c1)OCCO2 do in these assays?
B2AR ag: -11.2; E coli growth: 0.703; HNF4A DNA FP: 3.7; LANA-H2B inh: -2.9; ALR inh: 12.6; FGF22 binding: inactive; UCH37 DUB inh: 0.4

What do the screens show for `COc1ccccc1/C=C/C=N/NC(=O)c1cc(-c2ccc(C)o2)[nH]n1`?
B2AR ag: 8.9; HNF4A DNA FP: 2.9; LANA-H2B inh: 2.5; ALR inh: -3.3; FGF22 binding: inactive

Results for O=C(NNC(=S)Nc1ccc(F)cc1)c1ccccc1OC(F)F ?
B2AR ag: -9.9; E coli growth: 0.697; HNF4A DNA FP: -1.8; LANA-H2B inh: -4.9; ALR inh: 65.4; UCH37 DUB inh: 0.7

Results for CC(=O)NCCc1nc(-c2ccc(Cl)cc2)no1 ?
B2AR ag: -1.0; E coli growth: 0.659; HNF4A DNA FP: 0.0; LANA-H2B inh: -4.1; ALR inh: -2.0; FGF22 binding: inactive; UCH37 DUB inh: 3.2

How did COc1ccc(Cc2nnc(SCC(=O)NCC3CCCO3)o2)cc1 (centres undefined) do in these assays?
B2AR ag: 6.8; E coli growth: 0.634; HNF4A DNA FP: 2.0; LANA-H2B inh: -1.7; ALR inh: -5.1; FGF22 binding: inactive; UCH37 DUB inh: 0.4

What do the screens show for `COC(=O)Cc1csc(Nc2c(C)n(C)n(-c3ccccc3)c2=O)n1`?
B2AR ag: -17.6; E coli growth: 0.693; HNF4A DNA FP: 2.5; LANA-H2B inh: 0.6; ALR inh: 66.3; UCH37 DUB inh: 1.4

What do the screens show for `Cc1ccc(C(=O)Nc2cccc(C(F)(F)F)c2)cc1Nc1ccccn1`?
B2AR ag: 4.7; E coli growth: 0.684; HNF4A DNA FP: -3.8; LANA-H2B inh: -8.0; ALR inh: -10.7; FGF22 binding: inactive; UCH37 DUB inh: 0.7

Results for C#CC(CO)N(CCN(Cc1ccccc1)C(C#C)CO)Cc1ccccc1 (centres undefined) ?
B2AR ag: -2.9; E coli growth: 0.711; HNF4A DNA FP: -1.3; LANA-H2B inh: -4.9; ALR inh: 0.2; UCH37 DUB inh: 6.2

What do the screens show for `O=C(NC1CCCCC1)N1CCN(C(=O)c2ccco2)CC1`?
B2AR ag: 3.2; E coli growth: 0.665; HNF4A DNA FP: -0.2; LANA-H2B inh: -2.4; ALR inh: -0.8; FGF22 binding: inactive; UCH37 DUB inh: 4.3

What do the screens show for `Clc1ccc(-c2nnc3cccc(Cl)n23)c(Cl)c1`?
B2AR ag: 2.9; E coli growth: 0.726; HNF4A DNA FP: -0.1; LANA-H2B inh: 5.7; ALR inh: 0.0; UCH37 DUB inh: 4.0

Results for COC(=O)c1ccc(N=Cc2c(C(F)(F)F)[nH]n(C)c2=O)cc1 ?
B2AR ag: 0.1; E coli growth: 0.671; HNF4A DNA FP: 2.6; LANA-H2B inh: 0.6; ALR inh: 11.9; FGF22 binding: inactive; UCH37 DUB inh: 3.1

How did C/C(=N\NC(=O)C1COc2ccccc2O1)c1cccs1 (centres undefined) do in these assays?
B2AR ag: 0.3; HNF4A DNA FP: -1.9; LANA-H2B inh: -5.5; ALR inh: -4.2; FGF22 binding: inactive

How did CC(=O)c1ccc(N=Cc2c(O)n(-c3cc(Cl)ccc3N3CCOCC3)c(=O)c3ccccc23)cc1 do in these assays?
B2AR ag: -4.6; E coli growth: 0.816; HNF4A DNA FP: 1.7; LANA-H2B inh: 3.9; UCH37 DUB inh: -0.1

How did Cc1ccc(NC2=CC(=O)CC(C)(C)C2)cc1C do in these assays?
B2AR ag: 13.3; E coli growth: 0.731; HNF4A DNA FP: -1.5; LANA-H2B inh: 1.9; ALR inh: -14.5; UCH37 DUB inh: 9.2

Results for c1cn(CCCNc2ncnc3sc4c(c23)CCC4)cn1 ?
B2AR ag: -13.5; E coli growth: 0.68; HNF4A DNA FP: 1.1; LANA-H2B inh: 0.9; ALR inh: -1.4; UCH37 DUB inh: 3.1

What do the screens show for `CS(=O)(=O)N(CC(=O)Nc1ccc(S(=O)(=O)N2CCOCC2)cc1)c1ccccc1Cl`?
B2AR ag: 12.8; E coli growth: 0.667; HNF4A DNA FP: -3.8; LANA-H2B inh: -8.9; ALR inh: -27.5; FGF22 binding: inactive; UCH37 DUB inh: 0.7

Results for Cc1ccc(NC(=O)CSCC(=O)Nc2ccc(S(=O)(=O)N3CCCC3)cc2)cc1 ?
B2AR ag: 15.5; E coli growth: 0.696; HNF4A DNA FP: -0.7; LANA-H2B inh: -1.5; ALR inh: -20.7; FGF22 binding: inactive; UCH37 DUB inh: 0.2

How did OC(COCC(F)(F)C(F)(F)C(F)(F)C(F)F)Cn1c2ccccc2c2ccccc21 (centres undefined) do in these assays?
B2AR ag: 7.8; E coli growth: 0.675; HNF4A DNA FP: -5.2; LANA-H2B inh: 7.9; ALR inh: -1.4; FGF22 binding: inactive; UCH37 DUB inh: 1.3

How did CN(c1ccc(C(=O)N2CCN(Cc3ccccc3)CC2)cc1)S(=O)(=O)c1ccc(Cl)cc1 do in these assays?
B2AR ag: -9.2; E coli growth: 0.656; HNF4A DNA FP: -5.6; LANA-H2B inh: 3.0; ALR inh: -7.3; FGF22 binding: inactive; UCH37 DUB inh: -0.6

What do the screens show for `CCOc1cc(C(=O)O)cc(Cl)c1OC`?
B2AR ag: -1.7; E coli growth: 0.731; HNF4A DNA FP: -1.8; LANA-H2B inh: -0.3; ALR inh: 4.1; UCH37 DUB inh: 2.6

Results for O=C(CCc1ccccc1)Nc1ccccc1F ?
B2AR ag: 1.8; E coli growth: 0.776; HNF4A DNA FP: 0.8; LANA-H2B inh: 6.9; ALR inh: 1.2; UCH37 DUB inh: -0.2

What do the screens show for `O=C(NCCn1c(C(F)(F)F)nc2ccccc21)[C@H]1CCCN1c1nc(CN2CCCCC2)cs1`?
B2AR ag: -5.5; HNF4A DNA FP: 1.9; LANA-H2B inh: 0.3; ALR inh: -3.6; FGF22 binding: inactive; UCH37 DUB inh: 0.5

Results for COCC(C)n1c(C)cc(C(=O)CSc2nnc(N)s2)c1C (centres undefined) ?
B2AR ag: -0.1; E coli growth: 0.669; HNF4A DNA FP: 2.0; LANA-H2B inh: -5.1; ALR inh: -18.9; UCH37 DUB inh: -1.2

What do the screens show for `COc1ccc(Cl)cc1S(=O)(=O)N(C)CC(=O)NCc1ccc2c(c1)OCO2`?
B2AR ag: -21.2; E coli growth: 0.693; HNF4A DNA FP: 1.2; LANA-H2B inh: -2.2; ALR inh: 2.0; FGF22 binding: inactive; UCH37 DUB inh: 4.6

What do the screens show for `COc1ccc(-c2nc3ccccc3[nH]2)cc1`?
B2AR ag: -6.6; E coli growth: 0.624; HNF4A DNA FP: -0.8; LANA-H2B inh: 2.0; ALR inh: -1.0; FGF22 binding: inactive; UCH37 DUB inh: 3.9

Results for Cc1ccc(C(=O)NC(=S)/C=C2\N(C)c3ccccc3C2(C)C)cc1 ?
B2AR ag: -47.8; E coli growth: 0.74; HNF4A DNA FP: 13.1; LANA-H2B inh: 0.6; ALR inh: -10.0; FGF22 binding: inactive; UCH37 DUB inh: 4.2

Results for Cc1cn([C@@H](CCCCN)C(=O)NCCCCCCCCCCC(=O)N2CCNCC2)nn1 ?
B2AR ag: 0.9; HNF4A DNA FP: 3.3; LANA-H2B inh: -0.6; ALR inh: 1.3; FGF22 binding: inactive; UCH37 DUB inh: -4.6

As a working copy, two of the compounds above.
How did OC(COCC(F)(F)C(F)(F)C(F)(F)C(F)F)Cn1c2ccccc2c2ccccc21 (centres undefined) do in these assays?
B2AR ag: 7.8; E coli growth: 0.675; HNF4A DNA FP: -5.2; LANA-H2B inh: 7.9; ALR inh: -1.4; FGF22 binding: inactive; UCH37 DUB inh: 1.3

How did CN(c1ccc(C(=O)N2CCN(Cc3ccccc3)CC2)cc1)S(=O)(=O)c1ccc(Cl)cc1 do in these assays?
B2AR ag: -9.2; E coli growth: 0.656; HNF4A DNA FP: -5.6; LANA-H2B inh: 3.0; ALR inh: -7.3; FGF22 binding: inactive; UCH37 DUB inh: -0.6

Further results follow:
What do the screens show for `O=C1C2C3C=CC(C3)C2C(=O)N1CCc1ccccc1` (centres undefined)?
B2AR ag: 0.7; E coli growth: 0.684; HNF4A DNA FP: 0.3; LANA-H2B inh: -3.5; ALR inh: -0.1; UCH37 DUB inh: 1.9

How did CCOc1ccc(Nc2oc(-c3cccs3)nc2C#N)cc1 do in these assays?
B2AR ag: 2.3; E coli growth: 0.672; HNF4A DNA FP: -0.5; LANA-H2B inh: -7.6; ALR inh: -6.6; UCH37 DUB inh: -256.0

Results for Cc1cc(NC(=O)CSc2n[nH]c(N)n2)no1 ?
B2AR ag: -3.9; E coli growth: 0.713; HNF4A DNA FP: -2.8; LANA-H2B inh: active; ALR inh: -0.2; FGF22 binding: inactive; UCH37 DUB inh: 1.7

How did Brc1ccc(OCCCN2CCOCC2)cc1 do in these assays?
B2AR ag: 2.6; E coli growth: 0.702; HNF4A DNA FP: -1.4; LANA-H2B inh: 5.7; UCH37 DUB inh: 1.8

Among those listed so far, these contain a furan ring, fused or not:
What do the screens show for `COc1ccccc1/C=C/C=N/NC(=O)c1cc(-c2ccc(C)o2)[nH]n1`?
B2AR ag: 8.9; HNF4A DNA FP: 2.9; LANA-H2B inh: 2.5; ALR inh: -3.3; FGF22 binding: inactive

What do the screens show for `O=C(NC1CCCCC1)N1CCN(C(=O)c2ccco2)CC1`?
B2AR ag: 3.2; E coli growth: 0.665; HNF4A DNA FP: -0.2; LANA-H2B inh: -2.4; ALR inh: -0.8; FGF22 binding: inactive; UCH37 DUB inh: 4.3

A portion of the library; the hit share may differ from the screen's.
